# Sa growth inh: S. aureus growth inhibition | S. aureus RN4220 growth, OD600, 20 h, 42 °C; hits give low values | relative growth, % (test concentration not listed) | actives 0.53% (n = 170,000) | AID 720641;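 active means growth at 42 °C up to 50% and 20 or more points under that at 30 °C, or under 10% at both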;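 further: 300 nL library stock went into each well; scaled to the means of positive and negative controls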
# HCMV NEC inh: inhibitors of HCMV UL50-UL53 nuclear egress complex interaction; inhibition, % (concentration not given with the values); actives 0.15% (n = 190,000); HTRF UL50-UL53 interaction, normalized percent inhibition;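 active means both replicates at 50% or more, plus weaker picks with an unusually low signal ratio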;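 further: stock transfer was 100 nL into about 20 µL; 0% = negative control wells and 100% = wells with untagged competitor protein; inactives centre near -12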
# GIV-Gai inh: GIV-Galpha-i interaction inhibition. Galpha-i3/FITC-GIV peptide fluorescence polarization, 90 min; hits give low values; scaled: aluminum fluoride 0%, vehicle 100%. percent of control (FP), % (no concentration beside the values). AID 1224905. P08753. actives 0.42% (n = 210,000);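 active means replicate mean at 85% of control or lower, very high polarization wells dropped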;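 further: wells of about 15 µL received 100 nL stock; the first replicate is given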
# Target sequence (P08753 whole entry, looked up): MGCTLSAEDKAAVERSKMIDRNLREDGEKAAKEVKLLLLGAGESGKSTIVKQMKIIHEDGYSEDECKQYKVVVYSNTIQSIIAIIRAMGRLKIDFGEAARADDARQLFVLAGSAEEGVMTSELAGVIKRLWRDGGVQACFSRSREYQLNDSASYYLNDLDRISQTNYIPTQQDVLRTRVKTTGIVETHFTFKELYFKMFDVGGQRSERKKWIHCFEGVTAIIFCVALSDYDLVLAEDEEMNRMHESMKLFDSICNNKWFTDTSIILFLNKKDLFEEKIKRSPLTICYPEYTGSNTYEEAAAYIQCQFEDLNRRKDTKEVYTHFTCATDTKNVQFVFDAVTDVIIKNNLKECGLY
# Sa growth inh second temp: second read-out of Sa growth inh, no call of its own (marks repeat the call); relative growth, %; measured here: growth at 30 °C;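 optical density after 20 h as mean of two plates; 100% = untreated growth and lower means inhibition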
# * hit, by the source's call; / = not tested or not shown; & = joins results of further samples.
SMILES,Sa growth inh,Sa growth inh second temp,HCMV NEC inh,GIV-Gai inh
CCN(C(=O)CSc1nc2ccccc2n1CC(=O)NCc1ccc(OC)cc1)c1ccccc1,112,90,/,104
COc1ccc(C(=O)c2ccc(C)cc2)cc1,85,92,-13,102
CNS(=O)(=O)c1ccc(NC(=O)c2nc3nc(C)cc(C(F)F)n3n2)cc1,107,97,15,95
CC(=O)N1CC(C)Oc2ccc(S(=O)(=O)Nc3ccccc3C)cc21 (stereo unspecified),102,84,-8,101
COc1ccccc1C(=O)N1CCCCC1CCN1CCOCC1 (stereo unspecified),93,91,-19,104
O=C(Nc1ccc(N2CCN(Cc3ccccc3)CC2)cc1)c1ccccc1F,98,96,8,113
O=C(O)c1cccc(CN2CCN(c3ccccc3)CC2)c1,113,92,-1,/
CC(C)NCC(O)COc1ccccc1 (stereo unspecified),87,102,25,104
CNC(=O)Nc1cc(C(F)(F)F)cc(C(F)(F)F)c1,78,63,-31,102
CC(C)c1ccc(NC(=O)NCCS(C)=O)cc1 (stereo unspecified),92,84,/,105
COC(=O)C1(N)CCCCC1,96,85,-12,102
CN1/C(=C/C(=O)C2CC2)C(C)(C)c2ccccc21,87,89,-4,/
Brc1cc(Br)c2ncc(-c3ccc4ccccc4n3)cc2c1,90,82,/,104
C=CCN(C(=O)Cc1c(C)noc1C)c1nc(-c2ccc(S(C)(=O)=O)cc2)cs1,106,86,-32,/
Cc1ccc(O)c(NC(=O)c2noc3c2CCCCC3)c1,98,82,-8&-8,99&104
Cc1n[nH]c(C)c1Br,85,89,-18,100
CCOc1ccccc1NC(=O)CSc1nc2c(c(=O)[nH]1)CN(Cc1ccccc1)CC2,/,/,-16,101
CC1CN(c2nc3ccccc3nc2SCC(=O)NCCc2ccccc2)CC(C)O1 (stereo unspecified),129,92,/,105
CC(=O)Nc1ccc(NC(=O)c2ccc3c(c2)N(Cc2cccc(Cl)c2)C(=O)c2ccccc2S3=O)cc1 (stereo unspecified),120,90,/,101
CN(C(=O)c1cccc(S(=O)(=O)N2CCCCC2)c1)c1ccccc1,107,104,0,108
CCc1ccc(-n2c(=O)c3c4c(sc3n(CC(=O)NCCCOC)c2=O)CCCC4)cc1,103,108,5,109
CC(C)(C)C(=O)COC(=O)c1nonc1N,98,90,5,103
COc1ccc(-c2cnnc(N/N=C/c3c(C)[nH]n(-c4ccccc4)c3=O)n2)cc1,87,83,-105,98
Cc1cn2c3c(=O)n(C)c(=O)n(C)c3nc2n1Cc1ccccc1,106,83,0,103
Cc1ccc2cc3c(N)nn(C(=O)c4ccccc4F)c3nc2c1,95,89,/,98
COc1cc2c(=O)n(Cc3ccc(C(=O)NC(C)C)cc3)c(=O)n(CC(=O)NC3CCCC3)c2cc1OC,/,/,-18,101
Cc1ccc(NC(=O)CN2C(=O)COc3ccc(S(=O)(=O)Nc4ccccc4)cc32)c(C)c1,117,97,/,105
O=C(CSc1nc2ccccc2[nH]1)NC1CCCc2ccccc21 (stereo unspecified),103,95,-26,/
COc1cc(C2CC(=O)Nc3c2sc(C(=O)O)c3-c2cccc(F)c2)ccc1OCC(N)=O (stereo unspecified),/,/,-9,102
C/C(=N/NC(=O)CC1N=C(Cc2ccccc2)NNC1=O)c1ccco1 (stereo unspecified),92,93,-27,105
CC(=O)Nc1nnc(CCS(=O)(=O)c2ccc(C)cc2)s1,105,77,/,103
COc1cccc2cc(C#N)c(=N)oc12,88,88,13,106
COc1ccc(-c2nc(Cn3c(SCc4ccc(C)cc4)nc4cccnc43)c(C)o2)cc1OC,110,104,/,109
c1ccc2[nH]c(CN3CCCCC3)nc2c1,96,100,1,107
CCC(Sc1nc2ncccc2o1)C(=O)N1CCOc2ccc(C)cc21 (stereo unspecified),/,/,-31,106
CSc1nc(C)cc(OCC(=O)N2CCOCC2)n1,119,81,-6,104
COc1ccc(CCNC(=O)c2ccc3c(c2)N(Cc2ccc(F)cc2)C(=O)c2ccccc2S3(=O)=O)cc1OC,107,102,-1,106
Cc1ccc(Cl)cc1NC(=O)N1CCC(CN2CCc3ccccc3C2)CC1,86,93,/,99
CC1CCCC(NC(=O)c2cc(=O)[nH]c3ccc(Br)cc23)C1C (stereo unspecified),99,95,-5,102
Cc1ccc(-c2nccc(N3CCC(C(=O)NC4CCCC4)CC3)n2)cc1,/,/,-18,103
O=C(c1cnc2cc(-c3ccccc3)nn2c1)c1cc(F)ccc1O,/,/,-13,96
Cc1nn(-c2ccccn2)c2c1-c1nc(-c3ccc(Cl)cc3)ncc1CC2,90,85,-33,105
Cc1nc2ncnn2c(C)c1CCC(=O)NCc1ccccc1Cl,107,92,-27,102
CCOC(=O)c1c(NC(=O)COc2ccccc2)sc(C(C)=O)c1C,100,88,/,104
COc1cccc(CNC(=O)c2cccc(S(=O)(=O)N3CC(C)OC(C)C3)c2)c1 (stereo unspecified),85,91,4,/
COC(=O)CNC(=O)c1cn(CC(C)C)c(=O)c2cc(OC)c(OC)cc12,97,89,/,100
CCn1c(=O)c(-c2[nH][nH]c(=O)c2/C=N/c2nccs2)c(O)c2ccccc21,87,77,-12,/
Cc1cnc(C(=O)OC(C)C(=O)Nc2cccc(C(F)(F)F)c2)cn1 (stereo unspecified),86,95,-27,/
Cc1ccc(C(C#N)CC(=O)c2ccc(Cl)cc2)cc1 (stereo unspecified),/,/,-20,102
COc1ccc(CNC(=O)C(OC(=O)c2ccco2)c2ccc(C)cc2)cc1 (stereo unspecified),99,78,-11,104
O=c1oc2ccccc2cc1-c1nc(-c2ccc(C(F)(F)F)cc2)no1,101,87,-35,104
CCOC(=O)c1cc2c(=O)n3ccccc3nc2n(CCCOC)c1=NC(=O)c1cc2ccccc2o1,113,86,-36,106
O=C(CSc1cc(Cl)ccc1Cl)OCC(=O)c1ccccc1,82,95,-15,/
CC(=O)N(c1ccccc1)c1nc(COC(=O)C2CCC2)cs1,76,92,-24,/

# Some of the entries above in a different format:
SMILES | Sa growth inh | Sa growth inh second temp | HCMV NEC inh | GIV-Gai inh
COc1cccc2cc(C#N)c(=N)oc12 | 88 | 88 | 13 | 106
COc1ccc(-c2nc(Cn3c(SCc4ccc(C)cc4)nc4cccnc43)c(C)o2)cc1OC | 110 | 104 | / | 109
c1ccc2[nH]c(CN3CCCCC3)nc2c1 | 96 | 100 | 1 | 107
CCC(Sc1nc2ncccc2o1)C(=O)N1CCOc2ccc(C)cc21 (stereo unspecified) | / | / | -31 | 106
CSc1nc(C)cc(OCC(=O)N2CCOCC2)n1 | 119 | 81 | -6 | 104
COc1ccc(CCNC(=O)c2ccc3c(c2)N(Cc2ccc(F)cc2)C(=O)c2ccccc2S3(=O)=O)cc1OC | 107 | 102 | -1 | 106
Cc1ccc(Cl)cc1NC(=O)N1CCC(CN2CCc3ccccc3C2)CC1 | 86 | 93 | / | 99
CC1CCCC(NC(=O)c2cc(=O)[nH]c3ccc(Br)cc23)C1C (stereo unspecified) | 99 | 95 | -5 | 102
Cc1ccc(-c2nccc(N3CCC(C(=O)NC4CCCC4)CC3)n2)cc1 | / | / | -18 | 103
O=C(c1cnc2cc(-c3ccccc3)nn2c1)c1cc(F)ccc1O | / | / | -13 | 96
Cc1nn(-c2ccccn2)c2c1-c1nc(-c3ccc(Cl)cc3)ncc1CC2 | 90 | 85 | -33 | 105
Cc1nc2ncnn2c(C)c1CCC(=O)NCc1ccccc1Cl | 107 | 92 | -27 | 102
CCOC(=O)c1c(NC(=O)COc2ccccc2)sc(C(C)=O)c1C | 100 | 88 | / | 104
COc1cccc(CNC(=O)c2cccc(S(=O)(=O)N3CC(C)OC(C)C3)c2)c1 (stereo unspecified) | 85 | 91 | 4 | /
COC(=O)CNC(=O)c1cn(CC(C)C)c(=O)c2cc(OC)c(OC)cc12 | 97 | 89 | / | 100
CCn1c(=O)c(-c2[nH][nH]c(=O)c2/C=N/c2nccs2)c(O)c2ccccc21 | 87 | 77 | -12 | /
Cc1cnc(C(=O)OC(C)C(=O)Nc2cccc(C(F)(F)F)c2)cn1 (stereo unspecified) | 86 | 95 | -27 | /
Cc1ccc(C(C#N)CC(=O)c2ccc(Cl)cc2)cc1 (stereo unspecified) | / | / | -20 | 102
COc1ccc(CNC(=O)C(OC(=O)c2ccco2)c2ccc(C)cc2)cc1 (stereo unspecified) | 99 | 78 | -11 | 104
O=c1oc2ccccc2cc1-c1nc(-c2ccc(C(F)(F)F)cc2)no1 | 101 | 87 | -35 | 104
CCOC(=O)c1cc2c(=O)n3ccccc3nc2n(CCCOC)c1=NC(=O)c1cc2ccccc2o1 | 113 | 86 | -36 | 106
O=C(CSc1cc(Cl)ccc1Cl)OCC(=O)c1ccccc1 | 82 | 95 | -15 | /
CC(=O)N(c1ccccc1)c1nc(COC(=O)C2CCC2)cs1 | 76 | 92 | -24 | /

# Source: PubChem BioAssay (ICCB-Longwood Screening Facility, Harvard Medical School)
